RanGTP-Impb inh: disruptors of Ran-importin-beta complex formation – biochemical, FRET, CFP-Ran, YFP-importin-beta, homogeneous, primary screen. cell-free CFP-Ran/YFP-importin-beta FRET ratio. inhibition, % (concentration not given with the values). actives 1.1% (n = 300,000). AID 2216;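 active = most replicates above 15%; inconclusive = exactly half above 15%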;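 also: 0% = DMSO wells and 100% = Ran loaded with GDP instead of GTP; wells of about 40 µL received 100 nL stock; the first replicate is given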
Beta2AR agonist: human beta-2 adrenergic receptor agonism by FAP | P07550 | Am2.2-beta2AR cells, FAP receptor internalization, flow cytometry; reference of the scale not given here | response, % (concentration not given with the values) | actives 0.43% (n = 340,000) | AID 504454;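 active = response above a set limit, near 3 SD of response in nonfluorescent compounds, cut at about 42% in these data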;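 also: stock transfer was 100 nL into about 11 µL; a reference agonist was the positive control; negative values mostly stem from fluorescent compounds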
Target sequence (P07550 whole entry, looked up): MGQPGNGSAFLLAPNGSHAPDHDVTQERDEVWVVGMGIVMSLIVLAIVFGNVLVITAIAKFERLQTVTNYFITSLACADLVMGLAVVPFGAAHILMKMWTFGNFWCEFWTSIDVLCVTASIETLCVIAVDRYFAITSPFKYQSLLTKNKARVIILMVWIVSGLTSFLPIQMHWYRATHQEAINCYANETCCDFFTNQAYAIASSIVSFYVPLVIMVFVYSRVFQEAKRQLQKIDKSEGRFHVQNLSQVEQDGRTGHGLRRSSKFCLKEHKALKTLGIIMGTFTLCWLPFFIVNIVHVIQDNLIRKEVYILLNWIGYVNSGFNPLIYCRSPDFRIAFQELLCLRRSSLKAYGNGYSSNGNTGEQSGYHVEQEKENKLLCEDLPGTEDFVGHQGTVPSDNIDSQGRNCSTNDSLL
HNF4A DNA FP: change in binding of human HNF4 alpha to DNA; activity change, % at 10 µM; HNF4a-FITC DNA binding, fluorescence polarization, 1 h; AID 1224865; actives 0.3% (n = 360,000); in the data active = activity change above about 30%, passing the limit was not always enough;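 also: controls were the assay level and a saturating level of protein; the project sought stronger binding though the title names inhibitors; some compounds called inactive have numbers as strong as hits; positive values seem to mean higher polarization but the record does not say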
LANA-H2B inh: blocks KSHV LANA binding to histone H2A/H2B; Q9QR71; cell-free LANA-H2A/H2B peptide, fluorescence polarization; inhibition, % (concentration not given with the values); actives 0.6% (n = 320,000); AID 2629; in the data active = inhibition mostly above about 10%, no sharp cut-off; inactive = mostly below about 6.7%;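 also: stock transfer was 7.5 nL into about 10 µL; 0% = median of vehicle wells and 100% = median of positive control wells; one replicate is shown; the record names a cut of 25% in any replicate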
Calb FLC: C. albicans growth modulation with fluconazole; C. albicans CaCi-2 (fluconazole-resistant clinical isolate) + fluconazole, Alamar Blue growth, 48 h; growth inhibition, % (no concentration beside the values); actives 0.57% (n = 300,000); AID 1979;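 active = most replicates above 75%; inconclusive = exactly half above 75%; inactive = most below 75%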;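 also: all wells also contain fluconazole at 8 µg/ml as a sub-toxic cotreatment; 0% = median of DMSO wells and 100% = median of geldanamycin control wells; wells of about 8 µL received 7.5 nL stock; the first replicate is given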
ALR H2O2 inh: inhibitors of human sulfhydryl oxidase ALR; purified ALR, DTT oxidation, H2O2 HRP-luminol luminescence; inhibition, % (test concentration not listed); actives 3.8% (n = 290,000);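 active = mean and each replicate at 75% or more; inconclusive = only one of the two met; inactive = neither met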;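 also: stock transfer was 7.5 nL into about 7.5 µL; 0% = neutral wells and 100% = wells with inactivated enzyme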
Target sequence (P55789 whole entry, looked up): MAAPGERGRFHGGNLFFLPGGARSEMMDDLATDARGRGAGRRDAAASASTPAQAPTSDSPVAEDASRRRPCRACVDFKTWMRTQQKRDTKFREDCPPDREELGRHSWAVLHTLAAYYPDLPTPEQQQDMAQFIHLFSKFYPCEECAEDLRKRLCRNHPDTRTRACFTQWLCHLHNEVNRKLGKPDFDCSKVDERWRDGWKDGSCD
Vif A3G: HIV-1 Vif–A3G interaction blockers – biochemical, TR-FRET, GST-Vif 1-94, biotin-A3G peptide, dose response retest, primary screen (AID 1117319); TR-FRET GST-Vif / biotin-A3G peptide binding; higher % means a stronger effect; test concentration not given here; strong numbers were not always called active; one-dose inhibition, %; IC50 in µM for titrated hits; actives 0.57% (n = 260,000);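 active = above the screen mean plus three standard deviations and confirmed in dose response; inconclusive = results disagree or hit not tested in dose response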;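 also: Vif residues 1-94 fused to GST binding biotinylated APOBEC3G peptide 110-148; 0% = full assay without inhibitor and 100% = GST in place of GST-Vif; retest series ran down from 100 µM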
Starred values were filed as active, the others as inactive; u = inconclusive; x = not tested or not shown.

No.	Molecule	RanGTP-Impb inh	Beta2AR agonist	HNF4A DNA FP	LANA-H2B inh	Calb FLC	ALR H2O2 inh	Vif A3G
1	Cc1ccc(S(=O)(=O)CCCS(=O)(=O)c2ccc(C)cc2)cc1	1.2	2	-3.1	1.5	11	-23	-3%
2	COc1cc([N+](=O)[O-])ccc1NC(=O)C[n+]1cccc(C(C)=O)c1	-3.7	2	-2.1	-3.9	-9	-8	6%
3	CN(C)S(=O)(=O)c1cccc(NC(=O)COC(=O)CCC(=O)c2cccs2)c1	-3.4	-4	-1.5	-4.5	-2	-5	-2%
4	CCCCNC(=O)CSc1nnc(Cc2ccc(Cl)c(Cl)c2)c(=O)[nH]1	u	7	0.0	-2.9	6	-13	-2%
5	O=C(COc1ccc(Cl)cc1Br)N1CCN(c2ncccn2)CC1	x	7	2.6	x	x	x	7%
6	Cc1ccccc1-n1c(SC(C)C(N)=O)nnc1-c1cccnc1 (centres undefined)	3.5	6	-0.5	-1.2	2	1	-1%
7	COc1ccc(-n2c(SCC(=O)Nc3ccc4c(c3)OCO4)nnc2C(C)N2CCCCC2)cc1 (centres undefined)	-4.5	6	1.3	0.4	-4	x	8%
8	CCCCN(Cc1ccccc1)C(=O)C1CCN(S(=O)(=O)c2c(C)noc2C)CC1	-1.9	-4	0.1	4.2	-4	-2	u
9	CC(NC(=O)CSc1nc(=O)cc(N)n1CCc1ccccc1)c1ccccc1 (centres undefined)	x	-5	2.7	-2.3	x	x	32%
10	Nn1c(SCC(=O)Nc2nc3ccccc3s2)nncc1=O	3.7	-11	-0.6	-4.1	0	98*	3%
11	COc1ccc(C(=O)NCCS(=O)(=O)N2CCN(Cc3ccccc3)CC2)cc1	3.3	11	-2.2	2.5	0	-3	1%
12	COc1cc(OC)cc(C(=O)NNC(=O)CN2C(=O)NC(C)(c3ccc(C)cc3)C2=O)c1 (centres undefined)	0.0	-4	-3.3	0.1	5	-18	-5%
13	CCC(C)NC(=O)c1ccc(Cl)c(S(=O)(=O)Nc2ccccc2N2CCOCC2)c1 (centres undefined)	x	7	-2.5	x	x	-4	0%
14	OCCCNc1cc(-c2ccccc2)nc2cc(-c3ccc(F)cc3)nn12	u	1	-2.4	8.8	8	18	-3%
15	CC1CC(C)CN(CCCNC(=O)CCNC(=O)Cn2ccc3ccccc3c2=O)C1 (centres undefined)	-0.8	-4	0.7	-4.3	-8	-1	-5%
16	CC(C)CC(=NNC(=O)c1ccncc1)c1cc(Cl)ccc1O	x	14	98	x	x	x	-11%
17	C=C(C)c1cccc(C(C)(C)NC(=O)N2CCN(C)CC2)c1	-0.4	-12	14	1.7	3	-2	u
18	O=C(Cn1cnc2c(cnn2-c2ccc(F)cc2)c1=O)N1CCN(c2ccccc2F)CC1	1.2	4	6.0	-3.2	-7	-3	4%
19	CCC(C)(C)N(C(=O)CCC(=O)Nc1cc(C)on1)C(C(=O)NC(C)(C)C)c1ccc(OC)cc1 (centres undefined)	-2.4	-1	-0.1	-0.5	4	6	x
20	CC(CC(=O)NC1CCCC1)c1ccccc1 (centres undefined)	-0.1	-2	-1.6	0.6	2	x	-2%
21	O=C(c1ccc(=O)[nH]n1)N1CCN(S(=O)(=O)c2ccccc2F)CC1	x	30	5.1	-0.6	x	-5	x
22	Cc1cccc(C)c1NC1=C(Cl)C(=O)OC1OC(C)C (centres undefined)	-1.1	-2	-0.1	1.6	8	-5	x
23	O=C(CC(=O)Nc1ccc(Cl)cc1Cl)Nc1ccc(Cl)cc1Cl	-0.7	-8	1.0	-1.0	-4	1	1%
24	Cc1ccc(OCCCNCCO)c(Br)c1	-0.4	3	-0.5	-4.7	17	1	-1%
25	COc1nnc(-c2ccc(N3CCCCC3)c(NC(C)=O)c2)c2ccccc12	-1.2	-16	0.1	-3.1	5	13	-9%
26	Oc1ccc2ccccc2c1C=Nc1ccc(N2CCOCC2)cc1	2.8	x	x	-3.8	0	x	12%
27	O=C(CN1CCN(CC(=O)c2ccc(Cl)cc2)CC1)c1ccc(Cl)cc1	x	5	1.5	x	x	x	-6%
28	Cc1cc(NC(=O)COc2ccc(N(C)S(=O)(=O)c3ccccc3)cc2)no1	1.7	-7	-0.1	-0.7	7	6	1%
29	COc1cc2c(cc1OC)C(c1ccc(Br)cc1)N(C(=O)c1ccccc1C(=O)O)CC2 (centres undefined)	-0.4	14	2.0	-2.1	-3	x	4%
30	N#CCC(=O)Nc1ccc(C(=O)Nc2cccc(S(N)(=O)=O)c2)cc1	1.7	-5	8.7	-1.7	9	x	7%
31	COc1ccc(S(=O)(=O)N(C)c2ccc(C(=O)NCc3ccccn3)cc2)cc1	1.9	1	0.2	1.6	5	-3	-7%
32	CC(C#N)(NC(=O)CN1CCN(S(=O)(=O)c2ccc(Br)cc2Cl)CC1)C1CC1 (centres undefined)	x	-13	-0.2	3.8	x	x	x
33	O=C(COc1ccc(Cl)cc1)Nc1cc(NC(=O)COc2ccc(Cl)cc2)cc(C(=O)O)c1	2.5	0	0.1	-5.2	0	42	x
34	Cc1cc(NCc2ccncc2)ccc1Br	-0.3	-2	-1.5	2.2	18	8	0%
35	COC(=O)c1cc(S(=O)(=O)C(C)C)c(S(C)=O)s1 (centres undefined)	3.4	-9	0.3	1.7	-4	16	-3%
36	O=C(CN1CCCC1)NCC1(c2ccccc2)CCOCC1	-1.8	0	3.2	0.5	5	-1	33%
37	Cc1ccc(-c2nnn(CC(=O)N(CCO)C(C(=O)NC(C)(C)C)c3ccncc3)n2)cc1 (centres undefined)	4.1	-1	-2.7	-1.4	-7	-17	-1%
38	Cc1onc(-c2ccccc2Cl)c1C(=O)NCCN1Cc2ccccc2C1=O	4.0	-5	0.8	-0.9	-1	-7	-2%
39	O=C(Nc1cccnc1)c1ccc(C(=O)Nc2cccnc2)cc1	0.2	-3	2.8	0.3	-7	x	-1%
40	CCOc1ccc(OCC)c(Nc2cc(C)nc3nc(C)nn23)c1	-0.6	-3	-1.5	2.7	7	-6	3%
41	O=C(Cc1cccs1)N(c1ccccc1)C1C=CS(=O)(=O)C1 (centres undefined)	4.2	-4	-1.5	0.4	25	-2	u
42	COc1ccc(CCNC(=O)CSc2nncn2N)cc1OC	-0.6	3	0.6	2.6	-3	x	0%
43	CCOC(=O)c1cc(C)sc1NC(=O)c1ccc(Cl)s1	u	-2	1.1	-12	-3	-2	-23%
44	Nc1c2c(nn1-c1ccccc1)CCC2	1.4	3	3.6	3.6	-11	x	x
45	COc1ccc(CCNC(=O)CSc2n[nH]c(C)c2[N+](=O)[O-])cc1OC	-2.0	4	3.4	-7.8	-2	-3	1%
46	Cn1c(N)c(C(=O)COC(=O)c2ccccc2NCc2ccco2)c(=O)n(C)c1=O	6.9	10	-2.2	0.7	-7	-3	x
47	COc1ccc(CN(Cc2nc3ccccc3c(=O)[nH]2)C(=O)C(C)(C)C)cc1	2.2	6	-3.1	5.0	-6	-5	-9%
48	CN(C(=O)/C=C/c1ccc(F)cc1)C1CCCCC1	-2.4	-8	1.3	-2.3	0	-4	x
49	CCc1c(C(=O)c2ccc(Cl)cc2)oc2c(C)c3oc(=O)cc(C)c3cc12	u	x	x	0.6	-3	-1	31%
50	COc1ccccc1NC(=O)COC(=O)C12CC3CC(CC(Cl)(C3)C1)C2	u	-2	4.5	0.4	-14	-8	x

Next results:
No.	Molecule	RanGTP-Impb inh	Beta2AR agonist	HNF4A DNA FP	LANA-H2B inh	Calb FLC	ALR H2O2 inh	Vif A3G
51	CN1CCN(NC(=O)c2c(-c3ccccc3)sc3ccccc23)CC1	x	0	0.0	1.7	x	6	x
52	CC(=O)c1cccc(N2C(=NC(=O)COc3ccccc3)SC3CS(=O)(=O)CC32)c1 (centres undefined)	3.6	-5	4.4	-2.7	-18	-4	x
53	Cc1cc(C)c(C#N)c(SCS(=O)Cc2ccccc2)n1 (centres undefined)	-0.1	-3	-1.7	-1.5	-12	x	-5%
54	CCCCNc1nc2ccccc2nc1NS(=O)(=O)c1cccs1	-1.3	3	-1.1	4.0	-5	-11	68%
55	Cc1cccc(NC(=O)CSc2nnc(CSc3nc(C)cc(C)n3)o2)c1	1.2	-9	0.3	4.5	-2	-3	5%
56	Nc1cc(=O)[nH]c(SCc2cccc3ccccc23)n1	-2.6	-6	-1.2	1.2	6	99*	-3%
57	CNC(=O)COc1coc(CN2CCN(Cc3ccccc3)CC2)cc1=O	2.8	-3	1.6	3.9	3	-4	-1%
58	S=c1[nH]nc(-c2ccco2)n1/N=C/C(Cl)=C/c1ccccc1	5.6	-1	1.2	0.8	5	97*	0%
59	C=CCn1c(SCC(=O)Nc2ncc(Cc3cc(Cl)ccc3Cl)s2)nnc1-c1ccncc1	1.7	3	-3.0	3.9	5	-1	-5%
60	C=CCc1c(C)nc(-c2ccccc2)nc1Nc1ccc(O)cc1	-5.7	0	-1.2	1.0	-4	99*	7%
61	CC(C)NC(=O)c1onc(CSc2ccccn2)c1C(=O)NC(C)C	-1.5	-6	-4.1	2.3	-3	-1	2%
62	Cn1c(SCC(=O)Nc2nccs2)nnc1-c1cccnc1	x	-1	-3.9	-6.3	x	3	1%
63	CCCCCCCOc1ccc(-c2ccc(C#N)cn2)cc1	-1.8	-3	-1.2	2.7	18	-8	-6%
64	COc1ccc(-c2cn3c(C)c(C(=O)NC(C)(C)C)sc3n2)cc1	-1.5	12	2.0	-2.7	-4	x	x
65	COC(=O)c1cc(-c2cccs2)nc2ccccc12	-0.8	0	3.4	-0.1	-7	-3	-8%
66	O=C(N/N=C/c1ccncc1)c1cc2c(ccc3ccccc32)o1	1.1	-13	2.1	-2.2	-6	-12	3%
67	CCCCCCCCC/C(=N\O)c1ccccn1	-0.8	-3	0.8	5.2	u	3	4%
68	COc1ccc(CCNC(=O)Cn2nc(C(=O)O)c3ccccc3c2=O)cc1OC	2.4	5	3.6	-1.4	-3	-8	15%
69	Cc1nc([N+](=O)[O-])c(C(=O)OCc2ccccc2C#N)n1C	3.6	0	-1.0	-0.2	-7	3	0%
70	CC1(C)ON(C2CCCCC2)[C@H]2c3nc4ccccc4n3C[C@H]21	5.2	-10	-4.2	-0.5	4	x	x
71	Cc1cccc(/C=N/NC(=O)c2cc(C)nc3ccccc23)n1	-0.8	5	-1.5	1.8	9	-8	26%

Assay outcomes as filed in PubChem BioAssay.
